# VDR inh: Inhibitors of the vitamin D receptor (VDR): qHTS; actives 0.93% (n = 400,000); Vitamin D3 receptor (Homo sapiens), P11473; VDR-SRC2-3 peptide fluorescence polarization, 2 h; Potency, µM, inactives show max response, negative = inhibition, actives largely listed as inhibitors; active = well fitted inhibition curve with a large enough effect; inconclusive = small, poorly fitted or top-dose-only effect, or another doubt; inactive = no such curve, though single readings can be large or run the other way; note: series mostly up to about 120 µM
# Target sequence (P11473 whole entry, looked up): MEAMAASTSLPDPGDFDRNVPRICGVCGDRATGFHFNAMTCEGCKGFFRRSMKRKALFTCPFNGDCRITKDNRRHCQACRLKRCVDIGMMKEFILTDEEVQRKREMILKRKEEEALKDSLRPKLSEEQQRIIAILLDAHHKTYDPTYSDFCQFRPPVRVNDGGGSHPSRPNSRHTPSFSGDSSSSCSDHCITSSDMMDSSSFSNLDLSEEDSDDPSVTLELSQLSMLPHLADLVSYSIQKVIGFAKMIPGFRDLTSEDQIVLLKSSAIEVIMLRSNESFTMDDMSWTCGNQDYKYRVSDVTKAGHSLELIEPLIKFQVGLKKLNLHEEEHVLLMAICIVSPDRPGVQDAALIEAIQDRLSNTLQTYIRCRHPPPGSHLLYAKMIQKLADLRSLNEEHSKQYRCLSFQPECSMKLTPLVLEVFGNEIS
#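 Compounds are added to VDR with labelled SRC2-3 coactivator peptide and held 2 h at room temperature. Inhibition of the VDR–peptide interaction is then read as a change in fluorescence polarization.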
# The depositor's hits bear a star; ? = inconclusive; & = joins results of further samples; [ ] = remark or other dose. % is set by controls: 0 for no effect and ±100 for the full control effect; potency is the fitted concentration of half-maximal effect.
# Sample of the layout (two entries):
SMILES | VDR inh
CCCC1(C(=O)OC)NC(c2ccc(OC)cc2OC)C2C(=O)N(c3cccc(C(C)=O)c3)C(=O)C21 (stereo unspecified) | -14%
CCOC(=O)c1ccc(NC(=O)C(CC)CC)cc1 | -2%

# Main list, from the first entry:
SMILES | VDR inh
CCCC1(C(=O)OC)NC(c2ccc(OC)cc2OC)C2C(=O)N(c3cccc(C(C)=O)c3)C(=O)C21 (stereo unspecified) | -14%
CCOC(=O)c1ccc(NC(=O)C(CC)CC)cc1 | -2%
COC(=O)CN1C(=O)COc2ccc(Cl)cc21 | -10%
CCOc1ccccc1NCc1nnc(-c2ccccc2)o1 | 14%
O=C(CSc1nc(=O)n2ccccc2n1)NCc1ccc2c(c1)OCO2 | -6%
Cc1c(Cl)cccc1NC(=O)CCN1C(=O)c2ccccc2Sc2ncccc21 | -5%
COc1cc(Cl)ccc1OCc1cc(C(=O)N(C)Cc2cn(C)nc2C)no1 | -16%
O=C(Nc1c(C(=O)NCc2ccco2)cnn1-c1ccccc1)c1cccc(F)c1 | -4%
CC(C)c1ccccc1OCC(=O)Nc1ccc2[nH]ncc2c1 | 2%
CCC(C(=O)NC1CCCCC1)N(Cc1cccs1)C(=O)CCC(=O)Nc1cc(C)on1 (stereo unspecified) | 10%
Cc1ccc(C)c(NC(=O)Cn2cc(S(=O)(=O)c3ccc(F)cc3)c(=O)c3cc(F)ccc32)c1 | -23%
CCOC(=O)C1CCN(C(=O)CNC(=O)c2nn(-c3ccc(OC)c(Cl)c3)c(=O)c3ccccc23)CC1 | 12%
FC(F)(F)c1ccc(Nc2nnnc3ccccc23)cc1 | 14%
CC(C)N(CCO)C(=O)C(c1ccccc1)c1ccccc1 | 14%
CNc1nc2ccccc2n(C)c1=O | -5%
O=C(OCC(=O)N1CCOCC1)c1cc2ccccc2oc1=O | 14%
COc1ccccc1-c1sc2ccccc2c1-c1ccc2c(c1)OCO2 | 2%
Cc1ccc(-c2nn(C(C)(C)C)c3ncnc(N)c23)cc1 | -4%&-1%&18%
Cc1c(O)ccc(-c2n[nH]c(C(=O)O)c2-c2nc3ccccc3s2)c1O | -6%
COCO[C@H]([C@@H](C)C=C(Br)Br)[C@@H](C)COCc1ccc(OC)cc1 | -7%
COc1cc2c(cc1OC)CN(C(=O)C(CCSC)NS(=O)(=O)c1ccc(C)cc1)CC2 (stereo unspecified) | -7%
COc1ccc(-c2noc(CC(=O)Nc3ccc(Br)cc3C)n2)cc1 | 13%
COc1ccc(CNC(=O)N2CCc3ccccc3C2)cc1 | 20%
CC(=O)CCc1oc2c([N+](=O)[O-])cccc2c1-c1ccc(C)o1 | -26%
Cc1ccc(C)c(NC(=O)CN(Cc2ccccc2)S(=O)(=O)c2ccc3nc(C)sc3c2)c1 | -11%
Cc1ccc(S(=O)(=O)c2cc3c(=O)n4ccccc4nc3n(CCCN3CCOCC3)c2=N)cc1C | -8%
CCOc1ccc(NC(=O)CSc2ncc(S(=O)(=O)c3ccc(F)c(C)c3)c(=O)[nH]2)cc1 | -27%
Cc1ccc(C)c(NC(=S)N(CCc2ccncc2)C(C)C)c1 | -11%
CCc1nc(SCC(=O)NNC(=O)C(C)C)c2ccccc2n1 | -13%
Cc1cc(C(C)(C)C)cc(C)c1COC(=O)c1cccnc1 | 11%
Nc1nonc1-n1nnc(C(=O)N/N=C/c2cccc(F)c2)c1-c1ccccc1 | -17%
O=C(O)c1ccc2c(c1)C(=O)N(Cc1ccco1)C2=O | -24%
O=C(CSc1ncnc2c1cnn2-c1ccc(F)cc1)NC1CCCC1 | 8%
O=C(CCCSc1nc2ccccc2s1)NC1=NCCS1 | 0%
O=C(NN1C(=O)NC2(CCCCC2)C1=O)c1cc2cc(Cl)ccc2o1 | 9%
Cc1ccc(NC(=O)CN2C(=O)COc3ccc(C)cc32)nc1 | -1%
CCC(C)C(=O)Nc1nnc(SCC(=O)NC2CCCC2)s1 (stereo unspecified) | 7%
CCOC(=O)C1(Cc2ccccc2)CCCN(C2CCN(C(C)=O)CC2)C1 (stereo unspecified) | 2%
C=C(C)CNC(=S)N/N=C(\C)c1cccc(NC(C)=O)c1 | -3%
CC(=O)C(/C=N/c1ncc(C(F)(F)F)cc1Cl)=C(\C)O | -14%
CCC(C)[C@H](NC(=O)Nc1ccc(C)cc1C)C(=O)O (stereo partly specified) | -9%
COc1ccc(/C=C(/NC(=O)c2ccccc2)C(=O)NCCCn2ccnc2)cc1OC | 7%
CCOC(=O)c1nnc(-c2ccccc2)nc1N1CC(C)OC(C)C1 (stereo unspecified) | 13%
Cc1[nH]nc2c1C1(C(=O)Nc3ccc([N+](=O)[O-])cc31)C(C#N)=C(N)O2 (stereo unspecified) | 1%
Cc1ccc(Nc2c(-c3ccc(Cl)cc3)nc3sccn23)c(C)c1 | -19%
O=C(C1CCN(C2CCN(C/C=C/c3ccccc3)CC2)CC1)N1CCOCC1 | 7%
COc1ccc(C(=O)CSc2nnc(CC(=O)Nc3ccccc3OC)n2C)cc1 | -1%
COc1ccc(CC(=O)N(C)Cc2cccc(OC)c2OC)cc1S(=O)(=O)N1CCOCC1 | 1%
COc1ccc(NC(=O)CCc2c(C)nn(-c3ccc(N4CCCC4)nn3)c2C)cc1Cl | 7%
CSc1nc(N)c2ncn([C@@H]3O[C@H](COP(=O)(O)OP(=O)(O)OP(=O)(O)O)[C@@H](O)[C@H]3O)c2n1 | -3%&4%
COCCCNC(=O)c1sc2nc(C)c(C(=O)Nc3ccc(C)cc3C)c(-c3ccccc3Cl)c2c1N | -17%
CCOC(=O)c1ccc(NC(=S)Nc2ccc(Br)cc2N)cc1 | 1%
O=C(CSc1ncccn1)Nc1cccc(S(=O)(=O)N2CCOCC2)c1 | -7%
COc1ccc(C/C(C)=N/NS(=O)(=O)c2ccc(Br)cc2)cc1 | -4%
Cc1ccc(C(=O)N2CCN(c3ccccc3)CC2)cc1C | -4%
CCOCc1nnc(NC(=O)c2cc(OC)c(OC)cc2[N+](=O)[O-])s1 | -7%
COCCNC(=O)CN(Cc1ccc(OC)cc1)C(=O)CCC(=O)Nc1nccs1 | -15%
COc1ccc(C)cc1NC(=O)NC1CCCc2ccccc21 (stereo unspecified) | 20%
COC(=O)c1cc(OC)c(OC)cc1NC(=O)c1csc(C)c1 | 13%
COc1ccc(-c2cnnc(N/N=C/c3ccc(C)o3)n2)cc1 | 45µM*

# 3 records drawn at random from the list so far, as already listed:
SMILES | VDR inh
CSc1nc(N)c2ncn([C@@H]3O[C@H](COP(=O)(O)OP(=O)(O)OP(=O)(O)O)[C@@H](O)[C@H]3O)c2n1 | -3%&4%
COc1ccc(NC(=O)CCc2c(C)nn(-c3ccc(N4CCCC4)nn3)c2C)cc1Cl | 7%
C=C(C)CNC(=S)N/N=C(\C)c1cccc(NC(C)=O)c1 | -3%

# Next part.
SMILES | VDR inh
CCOc1ccc(CCNC(=O)CSc2n[nH]c(N)n2)cc1OCC | -31%
CCOC(=O)N1CCC(N2CCN(S(=O)(=O)c3ccc(C)cc3)CC2)CC1 | -7%
O=C(N/N=C/c1ccc(O)cc1)c1cc(C2CC2)[nH]n1 | 0%
COc1ccc(Cl)cc1NC(=O)C1Cc2cc(S(=O)(=O)N3CCCC3)ccc2N1C(C)=O (stereo unspecified) | -4%
COC(=O)CCSCC(=O)Nc1ccc(C)c(S(=O)(=O)N2CCCCC2)c1 | -4%
Cc1nn(CC(=O)Nc2c(F)c(F)cc(F)c2F)c(=O)c2cccn12 | 15%
Cc1cccc(CN2CCCC(C(=O)N3CCc4ccccc4C3)C2)c1 (stereo unspecified) | 4%
Cc1cc(C)c(C#N)c(=N)o1 | 45µM*
Cc1cccc(C)c1NC(=O)CSC(=S)N1CCCC1 | 8%
Cc1ccc(-c2cc(C(=O)NCCCn3ccnc3)c3cc(Br)ccc3n2)o1 | -6%
N#CC(c1ccccc1)c1cccc(Cl)n1 (stereo unspecified) | -1%
Brc1ccccc1CN1CCC(N2CCCCC2)CC1 | -16%
Cn1c(NC(=O)CC2CCCCC2)cc(=O)n(C)c1=O | 6%
N#Cc1c(NCCO)nc(NCc2ccccc2)c2c1CCN(Cc1ccccc1)C2 | 2%
CCNc1c([N+](=O)[O-])c(=O)n(CC)c2ccccc12 | 11%
Cc1cnc(NC(=O)CSc2nnc(-c3cccs3)n2C)s1 | -10%
COc1cc(C(=S)N2CCN(c3ccccc3Cl)CC2)cc(O)c1O | ?
Cc1ccc2c(c1C)OC(=O)CC2c1ccccc1 (stereo unspecified) | -2%
Cc1cc(C)n2nc(C(=O)Nc3cccnc3)nc2n1 | -3%
COc1ccc(-c2oc(=O)c3cc(OC)c(OC)cc3c2C(F)(F)F)cc1 | -8%
CCOc1ccc(S(=O)(=O)N/N=C(\C)c2ccc(Cl)c(Cl)c2Cl)cc1 | -16%
CC(C)N1CCN(Cc2cccn2-c2cccnc2)CC1CCO (stereo unspecified) | -8%
CCCCc1nnc(NC(=O)C2=COCCO2)s1 | 9%
Cc1cc(C)cc(-n2ccn3cnnc3c2=O)c1 | 7%
COc1ccc(Nc2c3c(nc4nncn24)CCC3)cc1Cl | 12%
CN1C(=S)SC(C)(C)C1/[N+]([O-])=C/c1cccnc1 (stereo unspecified) | -5%
Cc1sc(NC(=O)C2C3CCC(O3)C2C(=O)O)nc1-c1ccc(CC(C)C)cc1 (stereo unspecified) | -19%
Cc1ccc(N/C(C(Cl)=C(Cl)Cl)=C(/Cl)[N+](=O)[O-])c(C)c1 | -12%
Cc1cc(NC(=O)c2ccccc2NS(=O)(=O)c2c(C)c(C)cc(C)c2C)no1 | 13%
CCOC(=O)N1CCN(C(=O)Cc2cccs2)CC1 | -9%

# Structures listed above printed as active in VDR inh.
SMILES | VDR inh
COc1ccc(-c2cnnc(N/N=C/c3ccc(C)o3)n2)cc1 | 45µM*
Cc1cc(C)c(C#N)c(=N)o1 | 45µM*

# Carrying on:
SMILES | VDR inh
Cc1c(C(=O)N(C)C(C)c2ccccn2)oc2c(F)cccc12 (stereo unspecified) | 5%
CC(Oc1ccc(Cl)cc1)c1ccc(C#N)c(=O)[nH]1 (stereo unspecified) | -10%
Cc1cc(-c2ccc(C(C)C)c(S(=O)(=O)N3CC(=O)Nc4ccccc43)c2)on1 | 38%[activator]
CC(=O)c1ccc(CCCc2ccc(C(C)=O)cc2)cc1 | -8%
Cc1ccc(C)c(S(=O)(=O)N2CCN(C(C(=O)Nc3ccc(F)cc3)c3ccccc3)CC2)c1 (stereo unspecified) | 15%
CCNC(=O)C1CCCc2c1[nH]c1ccc(Cl)cc21 (stereo unspecified) | -10%
O=C(c1ccc2[nH]c(=O)c(=O)[nH]c2c1)N1CCN(Cc2ccccc2)CC1 | -3%
Cn1c(=O)c2[nH]c(CN3CCN(Cc4ccccc4)CC3)nc2n(C)c1=O | 5%
CCOc1cc(CNC(=O)C2CCN(c3nc4ccccc4[nH]3)CC2)cc(OCC)c1OCC | 0%
O=C(COc1cccnc1[N+](=O)[O-])N1CCC(Cc2ccccc2)CC1 | -5%
COc1ccc(NC2=C(C(C)=O)C(c3ccc(OC)c(OC)c3)C(C(C)=O)C(C)(O)C2)cc1 (stereo unspecified) | 1%
Cc1ccc2nc(Cl)c3nnnn3c2c1 | ?
O=c1[nH]c(SCc2cccc(Cl)c2)nc2c1CCCC2 | -8%
O=c1[nH]c(C2CCCN(S(=O)(=O)c3ccccc3F)C2)nc2c1nnn2Cc1ccccc1Cl (stereo unspecified) | -4%
CCOC(=O)Nc1oc2ccccc2c(=O)c1CN1CCOCC1 | 2%
COc1ccc(Nc2nc3ccccc3nc2NS(=O)(=O)c2ccc(NC(C)=O)cc2)cc1 | 4%
Cc1nc2cnccc2n1C | 2%
COc1ccc(C(=O)NCC(=O)N=Nc2c(O)n(Cc3ccccc3)c3ccccc23)cc1OC | -4%
Cc1ccc(O)c(N=NC2=C(O)CC(C)(C)CC2=O)c1 | 9%
CN(C)c1ccc(N=Nc2nc3ccccc3n2C)cc1 | -20%
CC(C)CC(CSc1ccc(Br)cc1)N1CCN(CCc2ccccc2)CCC1=O (stereo unspecified) | -24%
CC(=O)C1=C(C)OC(N)=C(C#N)C1c1ccco1 (stereo unspecified) | -13%
CCOC(=O)CCCCC(=O)c1[nH]c(=O)[nH]c1CSc1nnc2c3ccccc3n(C(C)C)c2n1 | -6%
CS(=O)(=O)c1ccc(-c2nnc(NC(=O)c3ccco3)o2)cc1 | 15%
O=C(CC1C(=O)NC2CCCCC2N1C(=O)c1ccc([N+](=O)[O-])cc1)Nc1ccccc1 (stereo unspecified) | -11%
Cc1c(OCc2ccccc2)c(=O)ccn1Cc1ccc(F)cc1 | -2%
CC(=O)Nc1ccccc1-c1nnc(SCc2ccccc2Cl)[nH]c1=O | 1%
CCc1ccc(NC2=CC(=O)C(=O)c3ccccc32)cc1 | ?
COc1cc(CNCCCN2CCOCC2)cc(Cl)c1OCC(=O)NC(C)(C)C | 5%
O=C(c1ccc(Br)cc1)c1cc([N+](=O)[O-])ccc1N1CCOCC1 | -2%
COc1ccc(C(C)NC(=S)NC2CCCC2)cc1OC (stereo unspecified) | ?
CC(=O)N[C@@H]1c2c(ccc3ccccc23)OC[C@@H]1COC(C)=O | 2%
CCc1cc(=O)n2[nH]c(-c3ccccc3)c(-c3ccccc3)c2n1 | 4%
N#CC(C#N)=Cc1c(N2CCN(c3ccccc3)CC2)nc2ccccn2c1=O | 6%
CCCc1cc(=O)[nH]c(SCC(=O)N2CCCc3ccccc32)n1 | -14%
c1ccc2c(c1)nc(N1CCOCC1)c1ccccc12 | 11%
CCCC1(C(=O)OCC)NC(c2ccc(O)cc2)C2C(=O)N(c3cccc(C(C)=O)c3)C(=O)C21 (stereo unspecified) | 9%

# Bioassay records: PubChem, National Center for Advancing Translational Sciences (NCATS)

# Some of the compounds tested; the hit share may differ from the screen's.
